Assay outcomes: PubChem BioAssay, several laboratories
YopH inh: YopH (Yersinia) phosphatase inhibition; fluorescence Ex485/Em525; inhibition, %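 (about 10 µM by stock and volumes)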; 140,000 tested, 0.16% active;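 active = inhibition of 50% or more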;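 note: controls were vehicle for no effect and minimum signal wells for full effect; inactives centre near -20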
Mtb bLac sens: beta-lactam sensitization of Mtb H37Rv. M. tuberculosis H37Rv growth with meropenem, percent inhibition; hits of this screen are not shown here. inhibition, % at 25 µM. 330,000 tested, 0.27% active;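 active = about 74% or more and at least 40 points above the plate without the antibiotic, then above 30% in a dose series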;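 note: growth measured after seven days incubation then overnight dye step; 0% = bacteria only wells and 100% = bacteria with antibiotic; twin plates without the antibiotic show which effects depend on it; some results filed as inactive read as strong as hits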
Mtb growth: M. tuberculosis H37Rv growth inhibitors, H37Rv strain (AID 1626); M. tuberculosis H37Rv growth inhibition; higher % means a stronger effect; inhibition, % at 10 µM; hits with a dose series show IC50 in µM; 220,000 tested, 0.95% active;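 active = confirmed in a dose series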;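 note: bacteria incubated seven days before Alamar blue readout; 0% = bacteria only wells and 100% = bacteria with antibiotic wells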
Arbovirus anti: blocks arbovirus infection. inhibition, % at 10 µM. arbovirus infection cell-based antiviral screen. 200,000 tested, 0.37% active;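 active = inhibition from about 30%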;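 note: bluetongue infection of BSR cells; cell survival read as ATP light after 72 h; 0% = infected wells without compound and 100% = uninfected wells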
RecA splice inh: blocks M. tuberculosis RecA intein splicing; inhibition, %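 (about 9 µM by stock and volumes)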; cell-free RecA intein splicing, fluorescence; AID 2221; 290,000 tested, 0.75% active; P9WHJ3; in the data active = inhibition above about 30%;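 note: 0% = vehicle wells and 100% = reference inhibitor control wells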
Target sequence (P9WHJ3 whole entry, looked up, canonical isoform): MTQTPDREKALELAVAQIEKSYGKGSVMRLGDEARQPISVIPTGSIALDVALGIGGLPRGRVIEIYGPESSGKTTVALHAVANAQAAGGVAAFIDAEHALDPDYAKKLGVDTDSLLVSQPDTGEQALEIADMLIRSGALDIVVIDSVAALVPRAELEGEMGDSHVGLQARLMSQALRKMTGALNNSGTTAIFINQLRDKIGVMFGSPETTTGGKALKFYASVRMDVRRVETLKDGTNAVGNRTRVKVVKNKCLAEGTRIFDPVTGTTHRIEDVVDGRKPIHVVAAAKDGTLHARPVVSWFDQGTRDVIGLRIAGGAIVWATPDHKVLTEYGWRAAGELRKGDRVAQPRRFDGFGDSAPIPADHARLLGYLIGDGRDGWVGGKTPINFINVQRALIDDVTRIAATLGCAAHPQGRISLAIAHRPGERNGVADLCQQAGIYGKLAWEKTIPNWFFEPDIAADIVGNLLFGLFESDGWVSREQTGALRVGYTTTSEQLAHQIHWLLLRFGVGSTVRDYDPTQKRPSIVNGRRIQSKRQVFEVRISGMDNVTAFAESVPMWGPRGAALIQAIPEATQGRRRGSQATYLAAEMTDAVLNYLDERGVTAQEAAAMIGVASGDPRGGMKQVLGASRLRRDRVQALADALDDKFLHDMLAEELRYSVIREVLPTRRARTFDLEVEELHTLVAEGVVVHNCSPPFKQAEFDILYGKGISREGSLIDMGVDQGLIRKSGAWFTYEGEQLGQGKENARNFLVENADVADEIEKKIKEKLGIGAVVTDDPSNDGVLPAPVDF
Arbovirus anti repeat: further read-out of Arbovirus anti, marked with its call; inhibition, %; measured here: 10K subset replicate screen; many hits read low in the repeat;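 first of two repeat runs on a subset; 0% = infected and 100% = uninfected wells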
An asterisk follows results filed as active; nt = no result given. The list is partial; rates above refer to the full screens.

SMILES | YopH inh | Mtb bLac sens | Mtb growth | Arbovirus anti | RecA splice inh | others
COc1cc(C(=O)NCCc2c[nH]c3ccccc23)ccc1OCc1c(C)noc1C | nt | 2 | -4% | -20 | -0.3
CCOC(=O)N1CCN(c2nc3ccccc3nc2C(C#N)C(=O)NCCc2ccccc2)CC1 (stereo not drawn) | -35 | -12 | 9% | 10 | -25
COc1ccnc(-n2cccc2/C=N/O)c1C#N | nt | -3 | 4% | -2 | -4.8
COc1ccc(C(C(=O)NC(C)(C)C)N(Cc2cccs2)C(=O)CCC(=O)Nc2cc(C)on2)cc1 (stereo not drawn) | 2 | -5 | -2% | -3 | nt
CC(=O)c1cccc(NC(=S)NC(=O)CC(C)C)c1 | -20 | -6 | -4% | -1 | -1.4
COCCn1c(=NC(=O)CCS(=O)(=O)c2ccccc2)sc2cc(C(=O)OC)ccc21 | nt | -2 | nt | nt | 0.8
COCCNc1nc2nonc2nc1N1C[C@H]2CC[C@H]1C2 | nt | 3 | 6% | 0 | -0.4
COc1cccc(NC(=O)CSc2nnc(CN3CCOCC3)n2C)c1 | -4 | 2 | -10% | 7 | -3.6
O=C(NCCCN1CCCC1=O)c1csc2ccccc12 | -23 | 2 | 3% | -1 | 2.6
CCN(CC)c1nc2c(c(=O)n(C)c(=O)n2C)n1CCCc1ccccc1 | nt | -3 | nt | nt | 1.4
CCC(CC)NC(=O)COC(=O)c1ccc(OCC(=O)Nc2ccccc2OC)c(OC)c1 | 0 | 7 | -6% | 4 | 1.3
O=C(NC(=O)c1ccccc1)OCC1CCCN2CCCCC12 (stereo not drawn) | -17 | -4 | 9% | 8 | -4.9
CCCNc1nc(NCC)nc(OC)n1 | 3 | -8 | -4% | 4 | -2.6
COc1ccc(NC(=O)c2nc[nH]c2C(=O)Nc2ccccc2C)cc1 | -20 | 92 | 45% | -32 | -5.3
Cc1nc(NCc2ccccc2)sc1C(=O)Nc1ccccc1 | nt | -8 | -3% | -2 | 6.3
CN(C)CC1(c2ccccc2)CCCC1 | -22 | -9 | -15% | 8 | -0.4
N/C(Cn1cncn1)=N\NC(=O)C(=O)Nc1ccc(Cl)cc1Cl | nt | -3 | 0% | -4 | 0.0
S=C(Nc1ccc(Cl)c(Cl)c1)NN1CCOCC1 | -17 | -10 | -7% | 5 | -1.6
O=[N+]([O-])c1cc(C(F)(F)F)cc([N+](=O)[O-])c1NCCCNc1ccc([N+](=O)[O-])c2cccnc12 | -3 | 1 | 13% | -2 | 0.0
Cc1ccc(-c2nc(P(=O)(c3ccccc3)c3ccccc3)c(N3CCOCC3)o2)cc1 | -22 | -5 | 11% | -27 | 9.7
CCCn1c(NCc2ccco2)nc2c1c(=O)n(C)c(=O)n2C | -32 | -4 | -2% | 9 | 3.9
CCCCN1C(=O)NC(=O)C2(Cc3c(nc4c(C)cccn4c3=O)N3CCc4ccccc4C32)C1=O (stereo not drawn) | -48 | 29 | nt | -25 | 0.9
COc1ccc(CCNC(=O)C(=O)N2CCCCC2)cc1OC | -16 | 0 | 1% | 10 | 0.3
COc1ccc(NC(=O)COC(=O)/C=C/C(=O)OCC(=O)Nc2ccc(OC)c(Cl)c2)cc1Cl | -22 | 64 | -2% | 1 | 1.6
Fc1ccc(-c2cc(C(F)(F)F)nc(NCc3cccs3)n2)cc1 | -32 | 14 | 1% | -3 | -4.0

Next results:
SMILES | YopH inh | Mtb bLac sens | Mtb growth | Arbovirus anti | RecA splice inh | others
CC(=O)c1ccc2noc(-c3ccc(Cl)cc3)c2c1 | nt | 9 | 6% | 5 | -7.1
CCOC(=O)C1Cc2ccccc2CN1 (stereo not drawn) | -48 | 7 | -2% | -3 | -1.4
Cc1cccc(NC(=O)CCc2c(C)nn(-c3ccc(N4CCCCC4)nn3)c2C)c1 | nt | 5 | nt | nt | -1.8
CCN(CC)C(=O)COc1ccc2oc(-c3ccco3)cc(=O)c2c1 | nt | -7 | -7% | 1 | 0.8
Cc1ccc(C(=O)N/C(=C\c2cccs2)C(=O)NCCCn2ccnc2)cc1 | -39 | -3 | 0% | -9 | 1.0
COc1ccc(NC(=O)CC2Nc3cc(C)c(C)cc3NC2=O)c([N+](=O)[O-])c1 (stereo not drawn) | nt | 5 | 3% | -12 | -1.2
O=C(NCc1ccccn1)C1COc2ccccc2O1 (stereo not drawn) | -19 | -8 | 3% | -5 | -0.2
COc1ccccc1CCC(=O)OCC(=O)Nc1cccc(S(=O)(=O)N2CCCCC2)c1 | nt | -10 | nt | nt | 1.7
CC(=O)c1c(C)oc(C)c1CSCc1ccc(C(=O)O)o1 | -3 | -18 | -12% | 21 | 0.3 | Arbovirus anti repeat=12
CCOc1nc(Nc2ccc(OC)c(Cl)c2)nc(OCC)n1 | -3 | 0 | nt | -13 | 0.8
Cc1ccccc1-n1ncc2c1CC(C)(C)CC2NC(=O)c1ccncc1 (stereo not drawn) | nt | -7 | nt | nt | -1.1
CCOc1ccc(Nc2nc(N(C)c3ccccc3)nc(N)c2[N+](=O)[O-])cc1 | nt | -1 | nt | nt | -0.3
Cc1noc(C)c1S(=O)(=O)N(CC(=O)NCCc1ccccc1)c1ccc(C(C)C)cc1 | nt | 3 | nt | nt | -2.6
COc1cccc(NC(=O)c2c(C)nn(-c3ccccc3)c2Cl)c1 | nt | 3 | nt | nt | 0.5
COc1ccc2[nH]c(C(=O)NCCc3ccccc3)cc2c1 | nt | 1 | -6% | nt | 3.8
O=C(NCCN1CCOCC1)c1c(O)nc2sccn2c1=O | nt | -11 | nt | nt | -0.8
COc1cccc2c1OCC(CN1CCN(Cc3ccccc3F)C(CCO)C1)=C2 (stereo not drawn) | nt | 0 | nt | nt | -0.9
O=C1N=C(C=c2ccc(=Cc3[nH]c(=O)[nH]c3O)cc2)C(=O)N1 | nt | -3 | -11% | nt | -7.1
Cc1ccc(-c2cc3ncc(C#N)c(N)n3n2)cc1 | nt | 5 | 0% | -3 | -3.3
COc1cccc(CNC(=O)C(=O)NCCc2ccc(OC)c(OC)c2)c1 | -35 | 0 | -5% | 5 | -0.3
Cc1ccccc1OCC(O)Cn1c(NCc2ccco2)nc2c1c(=O)[nH]c(=O)n2C (stereo not drawn) | -49 | 9 | -1% | -3 | 1.0
O=[N+]([O-])c1c(C(Cl)Cl)nn(-c2ccccc2)c1N1CCCC1 | -42 | -3 | 17% | 24 | 16
Cc1ccccc1Nc1nc(N)nc(COC(=O)[C@@H](NC(=O)c2ccccc2Cl)C(C)C)n1 | nt | -11 | nt | nt | 1.7
CC(C)(C)n1nc2c(c1NC(=O)c1c(F)cccc1F)CS(=O)(=O)C2 | nt | 0 | nt | nt | -0.9
CCN(CC)CC(=O)c1c[nH]c2ccc(C)cc12 | -5 | -7 | 2% | 1 | 2.4

(more compounds)
SMILES | YopH inh | Mtb bLac sens | Mtb growth | Arbovirus anti | RecA splice inh | others
Cc1c(C(=O)NCC2CCCO2)oc2ccc(Br)cc12 (stereo not drawn) | nt | -15 | nt | nt | 1.7
Cn1c(=O)oc2cc(S(=O)(=O)N3CCC(C(=O)NCc4ccccc4Cl)CC3)ccc21 | nt | -1 | nt | nt | -1.6
CCNC(=O)Cc1c(OC)ccc2cc(Br)ccc12 | nt | 0 | 3% | 4 | 0.7
COC(=O)Cn1cnc2scc(-c3ccc(C)c(C)c3)c2c1=O | nt | 61 | nt | nt | -0.5
COc1ccc(-c2nnc(SCC(=O)NC(=O)NCc3ccco3)o2)cc1 | 2 | 87 | 18% | 14 | 3.5
Cc1ncoc1C(=O)N1CCCC(N2CCN(c3ccccc3F)CC2)C1 (stereo not drawn) | nt | -8 | nt | nt | 1.8
O=C(CNC(=O)c1ccccc1F)OCc1nc2ccccc2s1 | nt | -3 | 2% | 7 | 2.5
Cc1csc(NC(=O)CCNC(=O)c2ccccc2Cl)n1 | nt | 7 | 1% | 2 | nt
Cc1ccccc1C(=O)/C=C1/SCC(=O)N1C | nt | 1 | 5% | 5 | nt
CCOc1ccc(OCCC(=O)NNC(=O)c2nn(C)c(=O)c3ccccc23)cc1 | nt | -3 | nt | nt | -1.3
S=C(NCCc1ccccc1)Nc1ccc(Cl)cc1 | -30 | 3 | 16% | 7 | 1.6
CC1(c2ccccc2)NC(=O)N(CC(=O)Nc2ccc(Cl)c(S(=O)(=O)N3CCCCC3)c2)C1=O (stereo not drawn) | nt | -13 | nt | nt | 4.5
Cc1cc(=O)oc2cc(NC(=O)C3CC(=O)N(Cc4ccccc4)C3)ccc12 (stereo not drawn) | -33 | -3 | -3% | 1 | 1.5
O=C(CSc1ncccn1)Nc1ccc(N2CCOCC2)cc1 | -8 | 4 | -4% | -7 | -1.2
COc1ccc(C2NC3=C(CCC3)C3(C#N)C4(N=C(N)C23C#N)OCCO4)cc1 (stereo not drawn) | -25 | -13 | -6% | 5 | -5.5
Cn1cc(CN2CCC(CO)CC2)c(-c2ccc(Oc3ccccc3)cc2)n1 | nt | 1 | -5% | -28 | 1.1
CC(=O)Nc1ccc(OC(=O)c2cc([N+](=O)[O-])ccc2Cl)cc1 | -29 | nt | 5% | 3 | 6.5
CC(C)(C)c1ccccc1OCCOCCN1CCCCCC1 | nt | 12 | 58µM* | -5 | -0.8
CCCCCCCCCCOC(=O)C[N+](C)(C)C/C=C(/C)Cl | -33 | -4 | 2% | 3 | 0.0
N#CCN1CCCC(C(N)=O)C1 (stereo not drawn) | nt | -2 | 1% | -1 | 0.8
Nc1cc(C(F)(F)F)cc([N+](=O)[O-])c1N | nt | 11 | 23% | 14 | 0.0
COc1cc(C(=O)NCC(=O)OCc2ccccc2Cl)cc(OC)c1OC | nt | 3 | -2% | -1 | -0.2
COc1cc([N+](=O)[O-])ccc1NC(=O)/C=C/C(=O)O | nt | -3 | -3% | 4 | -0.3
CCC(C)N1CCN(C(=O)Cc2ccccc2)CC1 (stereo not drawn) | -8 | -16 | 4% | 2 | -1.8
CS(=O)(=O)N1CCCC(C(=O)NCCc2ccc(Cl)cc2)C1 (stereo not drawn) | -42 | 7 | -14% | 15 | 1.4

A draw from above in order of formula weight, low to high:
SMILES | YopH inh | Mtb bLac sens | Mtb growth | Arbovirus anti | RecA splice inh | others
Cc1csc(NC(=O)CCNC(=O)c2ccccc2Cl)n1 | nt | 7 | 1% | 2 | nt
CCOc1ccc(OCCC(=O)NNC(=O)c2nn(C)c(=O)c3ccccc23)cc1 | nt | -3 | nt | nt | -1.3
Cc1cccc(NC(=O)CCc2c(C)nn(-c3ccc(N4CCCCC4)nn3)c2C)c1 | nt | 5 | nt | nt | -1.8
CCOC(=O)N1CCN(c2nc3ccccc3nc2C(C#N)C(=O)NCCc2ccccc2)CC1 (stereo not drawn) | -35 | -12 | 9% | 10 | -25
O=[N+]([O-])c1cc(C(F)(F)F)cc([N+](=O)[O-])c1NCCCNc1ccc([N+](=O)[O-])c2cccnc12 | -3 | 1 | 13% | -2 | 0.0

More results follow:
SMILES | YopH inh | Mtb bLac sens | Mtb growth | Arbovirus anti | RecA splice inh | others
C1CCN(c2nc(N3CCCCC3)nc(N3CCNCC3)n2)CC1 | -20 | -6 | 9% | -47 | -3.8
O=C(O)Cn1c(SC2CCCCC2)nc2ccccc21 | -35 | -16 | -7% | 1 | -2.4
COc1ccccc1Nc1ncnc2c1c(C)c(C)n2CCO | nt | 9 | nt | nt | -5.0
Cc1cc2occ(CC(=O)N(C)CC(=O)Nc3ccccc3Cl)c2cc1C | nt | -3 | nt | nt | -2.3
Cc1ccc(NC(=S)N/N=C2\CC(C)(C)Oc3ccc(O)cc32)cc1 | -22 | -4 | -1% | 9 | -5.2
N#Cc1ccccc1CSc1ncccc1C(=O)O | nt | 4 | nt | nt | 1.3

A portion of the results above, as a working copy:
SMILES | YopH inh | Mtb bLac sens | Mtb growth | Arbovirus anti | RecA splice inh | others
Cc1cc2occ(CC(=O)N(C)CC(=O)Nc3ccccc3Cl)c2cc1C | nt | -3 | nt | nt | -2.3
Cc1ccc(NC(=S)N/N=C2\CC(C)(C)Oc3ccc(O)cc32)cc1 | -22 | -4 | -1% | 9 | -5.2
N#Cc1ccccc1CSc1ncccc1C(=O)O | nt | 4 | nt | nt | 1.3
